PrP 5UTR inh: suppresses PrP 5' UTR mRNA reporter expression | inhibition, % (no concentration beside the values) | cell-based PrP 5' UTR mRNA reporter, plate reader | 0.35% of 340,000 active | AID 488862;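 active = every replicate at 50% or more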;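 also: 0 = median of the neutral control wells; tested in H4 reporter cells; numbers are from one replicate; inactives centre near -14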
Mtb hypoxia inh: inhibitors of hypoxia-regulated fluorescent reporter in Mycobacterium tuberculosis; M. tuberculosis hypoxia-regulated fluorescent reporter, fluorescence; fluorescence inhibition, % (test concentration not listed); 0.1% of 300,000 active; AID 1159583;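 active = 35 to 45% if threefold the growth effect, above 45% if 1.5-fold the growth effect; inactive = the rest, general growth blockers included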;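 also: wells of about 50 µL received 100 nL stock; 0% = vehicle wells and 100% = reference inhibitor wells; whole bacteria with a GFP reporter of the hypoxia response; strong numbers were not always called active; many hits fall short of the cut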
ugtP null kill: kills S. aureus RN4220 lacking UgtP; S. aureus RN4220 ugtP deletion, OD600 growth, 16 h; some inactives read as strong as hits; growth inhibition, % (concentration not given with the values); 0.54% of 330,000 active; AID 1259309;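 active = z-score under -3 and OD600 up to 0.15 on both plates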;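 also: plate controls were untreated wells for no effect and antibiotic for full effect; wells of about 80 µL received 100 nL stock; the first replicate is given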
BJeLR lethal: kills HRASV12-expressing BJeLR cells. inhibition, % (concentration not given with the values). BJeLR (HRASV12) viability, CellTiter-Glo ATP luminescence, 48 h; reference of the scale not given here. 0.17% of 300,000 active. AID 1554;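 active = replicate mean above 50%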;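 also: 50 nL library stock added to about 25 µL; numbers are from one replicate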
RN4220 kill: S. aureus RN4220 growth inhibition; AID 1259311; 0.33% of 330,000 active; inhibition, % (test concentration not listed); OD600, 16 h;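 active = z-score of -3 or lower and OD600 up to 0.18 on both plates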;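 also: plate controls were untreated cells for no effect and reference antibiotic for full effect; stock transfer was 100 nL into about 80 µL; one replicate is shown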
Autofluor counter: flagged as autofluorescent in microsphere protease counterscreen. compound autofluorescence counterscreen, microsphere flow cytometry; hits give high values. fluorescence intensity (concentration not given with the values). 3.1% of 360,000 active;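 active = at least 3 SD above the mean of all compounds, about 16000 in these data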;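 also: 100 nL of 1 mM stock went into each well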
Mtb hypoxia inh growth: recorded beside Mtb hypoxia inh, whose call it bears; growth inhibition, %; measured here: M. tuberculosis growth (absorbance);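 0% = vehicle and 100% = reference antibiotic; read after six days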
The depositor's hits bear a star; x = no result given.

SMILES	PrP 5UTR inh	Mtb hypoxia inh	Mtb hypoxia inh growth	ugtP null kill	BJeLR lethal	RN4220 kill	Autofluor counter
COc1ncnc2c1sc1nc(-c3ccccc3)c3c(c12)CCCC3	-15	-3	8	13	4	-7.6	2061
COc1cccc(C(c2sc3ncnn3c2O)N2CC(C)OC(C)C2)c1 (configuration not stated)	-9	5	8	0	-4	-15	5238
CCn1c(=O)c2c3c(sc2n(C)c1=O)CCC3	0	5	12	-1	-1	2.5	10360
Cc1ccc(O)c(CCc2ccccc2)n1	-17	-1	2	13	12	3.8	10111
COc1ccc(N2C(=O)CC(N3CCN(c4ccccc4F)CC3)C2=O)cc1 (configuration not stated)	-19	14	6	7	-2	7.0	10584
CCOC(=O)c1c(S(=O)(=O)NCC(=O)Nc2cccc(C)n2)c(C)n(C)c1C	-33	7	3	3	3	3.2	5305
CCOc1ccc(C=NN2CCCCCC2)cc1OCC	-22	9	10	5	x	4.9	4103
CN(c1ccccc1)S(=O)(=O)c1cccc(C(=O)NCCCN2CCCC2=O)c1	-6	5	-3	-1	-7	1.6	4839
Cc1cc(OC(=O)c2cc([N+](=O)[O-])ccc2Cl)c([N+](=O)[O-])c(=O)[nH]1	12	-2	-4	1	-3	8.5	5649
COc1ccc(CCN2CN(S(=O)(=O)c3ccc(OC)cc3)c3nc4ccccc4nc32)cc1	-6	11	5	7	-6	5.5	2531
COC(=O)C1=C(C)N(Cc2ccc(C)cc2)C(=O)C1	-27	0	17	2	5	4.4	9314
O=C(CN1C(=O)NC(Cc2c[nH]c3ccccc23)C1=O)Nc1ccccc1Br (configuration not stated)	-17	0	-1	1	x	4.3	6432
COc1ccc(/C=C2\CCCC3C2=NN(C(=O)COC(=O)CNC(=O)c2ccccc2)C3c2ccc(OC)cc2)cc1 (configuration not stated)	-15	8	5	3	9	-0.4	x
COc1cc(C(C)=O)ccc1OCc1cc(C(=O)N(C)CCC2CCCCO2)no1 (configuration not stated)	-64	4	7	-1	2	3.1	5749
COc1ccc(-c2nn(-c3ccccc3)cc2C(=O)O)cc1N	-4	-4	8	0	2	0.0	3328
Cc1ccc(C)c(NC(=S)N2CCC(NC(=O)C3CCCCC3)CC2)c1	-19	-5	2	8	-11	1.9	5842
CCOC(=O)c1ccc(NC(=O)c2ccc(C)c(S(=O)(=O)N3CCOCC3)c2)cc1	1	x	x	-5	15	-3.4	2561
O=C(NC1CCCN(CCc2ccccc2)C1)c1c(F)cccc1F (configuration not stated)	-24	11	3	14	-4	-2.2	3341
CC(=O)c1cccc(NC(=O)CCc2nnc3ccc(N4CCN(C)CC4)nn23)c1	-20	-8	7	12	-3	5.6	6273
C=CCc1cc(OC)ccc1OCCOCCC(C(=O)OCC)C(=O)OCC	-18	-3	-7	-5	-3	2.2	2169

Part of the list above in order of SMILES length, rising.
SMILES	PrP 5UTR inh	Mtb hypoxia inh	Mtb hypoxia inh growth	ugtP null kill	BJeLR lethal	RN4220 kill	Autofluor counter
Cc1ccc(C)c(NC(=S)N2CCC(NC(=O)C3CCCCC3)CC2)c1	-19	-5	2	8	-11	1.9	5842
COc1ccc(N2C(=O)CC(N3CCN(c4ccccc4F)CC3)C2=O)cc1 (configuration not stated)	-19	14	6	7	-2	7.0	10584
O=C(CN1C(=O)NC(Cc2c[nH]c3ccccc23)C1=O)Nc1ccccc1Br (configuration not stated)	-17	0	-1	1	x	4.3	6432
CC(=O)c1cccc(NC(=O)CCc2nnc3ccc(N4CCN(C)CC4)nn23)c1	-20	-8	7	12	-3	5.6	6273
Cc1cc(OC(=O)c2cc([N+](=O)[O-])ccc2Cl)c([N+](=O)[O-])c(=O)[nH]1	12	-2	-4	1	-3	8.5	5649

Next section.
SMILES	PrP 5UTR inh	Mtb hypoxia inh	Mtb hypoxia inh growth	ugtP null kill	BJeLR lethal	RN4220 kill	Autofluor counter
Cn1c(=O)c2c(nc(OCc3cccnc3)n2Cc2c(F)cccc2Cl)n(C)c1=O	1	x	x	-2	-2	3.2	4168
CC1CCC(NCC(O)c2ccccc2)CC1 (configuration not stated)	-21	4	6	5	0	2.3	10310
CCOC(=O)C1CCN(c2nc(C)cc(C)c2C#N)CC1	-20	13	6	4	-1	4.5	4551
CC(/C=C\c1ccccc1)=C/C(=O)O	-7	15	5	1	5	2.3	4281
COC(=O)C1=C(c2ccc(F)cc2OCc2ccccc2)CC2CCC1N2C(=O)NCCc1ccc(F)cc1 (configuration not stated)	x	8	0	-6	x	-16	x
CC(C)C[C@H](NC(=O)c1nc[nH]c1C(=O)N1CCC(C)CC1)C(=O)OC(C)(C)C	8	x	x	x	-12	x	2959
COc1ccc(N2CCN(S(=O)(=O)c3c(C(=O)N4CCOCC4)c(C)n(C)c3C)CC2)cc1	-13	0	1	6	-5	6.5	5665
CCc1ccc([C@H]2C(C(=O)O)=C[C@@H](CC3CCCC3)N2S(=O)(=O)c2ccc(C)cc2)cc1	-3	-1	0	-19	x	22	3232
CCOc1cc(-c2c(C#N)c(N)nc3c2CCCC3)ccc1O	-53	x	x	12	3	4.9	3751
CCOC(=O)c1sc(NCC2CCCO2)nc1C (configuration not stated)	-11	x	x	1	-4	1.4	4819
O=C(CN1CCN(Cc2ccccc2Cl)CC1)NN=C/C=C\c1ccccc1[N+](=O)[O-]	x	7	3	8	x	-1.8	x
Cc1c(CC(=O)NCCC(=O)O)c(=O)oc2cc3oc4c(c3cc12)CCCC4	20	-8	6	0	-8	0.3	4535
CCN(c1ccccc1)S(=O)(=O)c1ccc(OC)c(NC(=O)CN(C)C)c1	-11	x	x	x	6	x	3411
O=C(O)c1cc2cc(Oc3ccccc3)ccc2[nH]1	-6	13	9	6	2	3.1	x
CCc1c(C(=O)NC2CCCc3ccccc32)[nH]c(C)c1C(C)=O (configuration not stated)	-4	4	6	-8	12	3.4	5320
CC(C)(C)C(=O)Nc1nnc(SCC(=O)NCc2ccco2)s1	-15	-2	2	7	-9	3.9	2422
Cc1ccc(S(=O)(=O)/C(=C/Cl)NC(=O)c2ccccc2)cc1	-4	10	5	0	-3	2.5	2456
O=C(NCc1ccc2c(c1)OCO2)c1ccc2c(c1)N(Cc1c(F)cccc1Cl)C(=O)CS2	0	9	-8	-5	-1	-0.8	2636
Cc1ccc2nc(-c3ccccn3)c(NC3CCCC3)n2c1	-34	10	2	-9	-9	1.7	4875
COc1cccc(C(C)NC(=O)Nc2ccccc2Cl)c1 (configuration not stated)	-11	-2	17	-3	0	1.2	2379
CC(=O)Cc1ccccc1OCC(=O)O	-14	8	7	3	-14	0.6	16749*
CC(C)(C)c1cc(C(F)(F)F)c(C#N)c(=O)[nH]1	-9	14	2	4	5	5.1	3747
CCn1cc(S(=O)(=O)N2CCN(Cc3cccc(Cl)c3)CC2)cn1	-12	-1	-13	-4	-7	-1.0	4252
COc1ccc(CNC(=O)N2CCN(c3ccc(F)cc3)CC2)cc1Cl	-30	2	0	-8	-4	-0.2	4564
CC1CN(C(C)CO)C(=O)c2cc(NC(=O)NC3CCCCC3)ccc2OC1CN(C)C(=O)Nc1ccc(C(F)(F)F)cc1 (configuration not stated)	x	2	16	0	x	-2.2	x
O=C(Nc1cc(S(=O)(=O)Nc2ccccc2F)ccc1Cl)c1ccc(F)cc1F	-24	18	7	-4	x	7.7	3852
CCc1ccc(NC(=O)CSc2nc3ccsc3c(=O)n2CCCCCC(=O)O)cc1	-22	-3	-2	17	-3	11	4237
COc1ccc(C(=O)N/N=C(\C)CC(=O)Nc2ccc3ccccc3c2)c(OC)c1	3	x	x	x	-10	x	5748
CC(=O)N1CCCc2ccc(NS(=O)(=O)c3ccc(C)c(C)c3)cc21	6	11	-2	5	15	3.2	4868
COc1cc(CNCCN(C)C)ccc1OCc1c(F)cccc1Cl	-20	22	7	8	3	-3.0	3365
COc1cc(C(=O)Nc2nccs2)cc(OC)c1OC	-10	x	x	8	-16	-0.7	4712
Cc1cnc2c(c1)C(=O)c1ccccc1-2	-6	-4	9	8	6	6.4	2907
O=S(=O)(c1ccc(F)c(Cl)c1)N1CCN(C/C=C/c2ccccc2)CC1	-23	12	7	3	x	-2.0	9328
O=C(CNC(=O)c1cccs1)NN=Cc1ccccc1[N+](=O)[O-]	x	-2	-6	9	x	1.5	x
Nn1cnnc1N/N=C/c1ccccc1C(F)(F)F	-14	x	x	x	-8	x	4283
C=CCNC(=O)NC(=O)COC(=O)/C(C#N)=C/c1ccc(OC)cc1	-22	7	2	2	6	3.5	3885
Cn1cc(S(=O)(=O)N2CCOCC2)cc1C(=O)NCc1ccccc1Cl	-14	1	5	-6	0	1.2	5125
CCOP(=O)(OCC)C(C)(C)NC(=O)Nc1ccc(Cl)c(Cl)c1	-1	-1	-2	2	5	1.5	4192
O=C(c1ccccc1F)N1CCN(C2CCC(c3ccccc3)CC2)CC1 (configuration not stated)	7	12	7	2	5	12	4426
O=C(NCc1ccco1)c1ccc(Cl)c(S(=O)(=O)N2CCCC2)c1	-44	5	-1	4	x	-0.4	9040
O=c1oc(CCCO)cc2ccc(C#CC3(O)CCCCC3)cc12	-28	8	1	-5	x	-11	3925
O=c1c2ccccc2nc(COc2ccccc2)n1N=Cc1cn[nH]c1-c1ccccc1	x	0	7	3	x	13	x
COc1cccc(C(=O)Nc2nnc(-c3cccs3)s2)c1	-38	2	3	-10	-1	4.5	3440
COc1ccc(-n2c(=S)[nH]c3sc4c(c3c2=O)CCc2ccccc2-4)cc1	x	3	4	17	3	6.0	x
COc1ccccc1N1CCN(C(=O)CSc2nc(N)cc(=O)[nH]2)CC1	-21	4	11	1	2	-0.5	9972
O=C(O)Cn1c(=O)c2c3c(sc2n(Cc2ccccc2F)c1=O)CCCC3	-13	6	2	-7	2	7.1	2981
CCC(NC(=O)NCCCn1ccnc1)(C(F)(F)F)C(F)(F)F	-6	2	4	4	-2	3.0	2528
CCOP(=O)(OCC)Oc1cc(C)c(N(C)C)c(C)c1	-15	7	-3	12	-7	6.7	4240
CCC(=O)c1ccc(OCC(O)CN2CCN(c3cccc(C(F)(F)F)c3)CC2)cc1 (configuration not stated)	-11	x	x	-3	2	4.7	2169
CNc1c(N=Cc2cccnc2)c(=O)n(C)c(=O)n1C	-16	10	9	7	-6	4.4	2072
CCc1ccc(NC(=O)C(C)OC(=O)CN2C(=O)NC3(CCCC3)C2=O)cc1 (configuration not stated)	-9	5	0	1	x	3.8	8563
Nc1c(C(=O)NC2CC2)sc2nc3c(c(-c4ccco4)c12)CC/C3=C/c1ccco1	-1	2	-2	-12	x	5.9	2138
CC(NC(=S)N1CCOCC1)c1ccccc1 (configuration not stated)	-24	13	4	7	-6	2.5	2088
Cc1cccc(C2C3C(=O)N(C)C(=O)C3C3C(=O)Nc4ccccc4C(=O)N32)c1 (configuration not stated)	x	-2	-2	-1	x	-1.2	x
CC(NC(=O)c1cc2ccccc2oc1=O)c1ccccc1 (configuration not stated)	-14	0	-4	2	-5	1.7	3331
CCOc1c2ccc(C(=O)NCc3ccc(OC(F)(F)F)cc3)cc2nn1CC	-14	0	11	9	3	3.9	3708
C/C(=N\Nc1ccc(S(=O)(=O)N2CCOCC2)cc1[N+](=O)[O-])C(C)C	-24	x	x	x	-7	x	3820
Cc1ccc(NC(=O)CCc2ccc(S(=O)(=O)N3CCOCC3)cc2)c(C)c1	-6	-4	11	-6	3	-2.4	20854*
CC1Sc2ccc(C(=O)Nc3ccc(S(=O)(=O)N(C)C)cc3)cc2NC1=O (configuration not stated)	0	-20	-2	-7	-2	0.8	x
COC(=O)c1ccc(C(=S)N2CCOCC2)cc1	-18	3	8	-8	-14	-16	3520

Just Autofluor counter and ugtP null kill (two entries from above):
Structure | Autofluor counter | ugtP null kill
Nc1c(C(=O)NC2CC2)sc2nc3c(c(-c4ccco4)c12)CC/C3=C/c1ccco1 | 2138 | -12
CC(NC(=S)N1CCOCC1)c1ccccc1 (configuration not stated) | 2088 | 7

Additional entries follow.
SMILES	PrP 5UTR inh	Mtb hypoxia inh	Mtb hypoxia inh growth	ugtP null kill	BJeLR lethal	RN4220 kill	Autofluor counter
Nc1nc(COC(=O)CCC(=O)c2ccccc2)nc(Nc2ccccc2)n1	-5	-17	-3	-3	x	0.3	6399
COc1ccccc1CNC(=O)c1nn(-c2ccc(C)cc2)c(=O)c2c1c1ccccc1n2C	20	-1	-2	10	-10	0.9	3150
Cc1cc(Oc2ccc3ccccc3c2)nc(SCC(=O)c2ccccc2)n1	-12	13	0	24	-9	-2.7	2349
COc1ccc(OCc2cc(C(=O)NCC3CCOCC3)no2)c(Cl)c1	-56	4	7	8	-4	0.1	5748
CN(C)CCNC(=O)c1ccccc1-c1ccccc1	-7	x	x	0	5	-0.9	4770
